NPYLR7 agonist – activates Aedes aegypti NPYLR7 receptor. HEK293T NPYLR7/Galpha15, GCaMP6s calcium fluorescence. activation, % at 10 µM. actives 0.15% (n = 270,000); in the data active = activation above about 40%;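 note: 0% = vehicle and 100% = reference agonist at the receptor; some compounds past the cut are filed as inactive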
NPYLR7 agonist max-min – second read-out of NPYLR7 agonist, no call of its own (marks repeat the call); activation, %; measured here: Max-Min RFU normalised activation; some inactives read as strong as hits;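 span of the calcium signal over five minutes; 0% = vehicle and 100% = native peptide agonist; compound fluorescence can raise it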
* = called active by the depositor; i = inactive.

SMILES	NPYLR7 agonist	NPYLR7 agonist max-min
O=c1c2cccnc2cnn1Cc1cccc(OCC(F)(F)F)c1	-5.2	i
COc1cc(-c2nc(C=Nc3ccc(C)c(Cl)c3)c(O)o2)cc(OC)c1OC	-0.3	-7.0
CC1=Nc2ccccc2N(CCC#N)C(=O)C1	0.4	5.6
O=C(Nc1cccs1)Nc1nc(CN2CCc3ccccc3C2)cs1	-0.3	1.4
COc1cn(CC(=O)NC(C)(C)C)c(CN2CCCCC2)cc1=O	-3.7	-4.3
Cn1cc(CCNC(=O)c2cc(COc3ccc4c(c3)CCCC4)on2)cn1	11.5	3.1
CC1CCN(C(=O)C2CCN(C(=O)c3ccc(Br)cc3)CC2)CC1	2.0	-5.4
CC(=O)c1ccc(N=Nc2c(-c3ccccc3)[nH]n(-c3ccc([N+](=O)[O-])cc3)c2=O)cc1	-3.6	-10.6
O=C(Nc1ccc(N2CCN(C(=O)CCN3CCCCC3)CC2)nc1)c1ccc(F)cc1	21.9	21.9
Cc1occc1-c1nnc(SCC(=O)N(C)Cc2ccccc2F)n1C	-6.5	15.2
Cc1ccoc1C(=O)N1CCn2c(C(N)=O)cnc2C1	35.1	18.7
COc1ccc(C)cc1NC(=O)c1nn(-c2ccc(C)cc2)c(=O)cc1OC	9.2	2.8
Cc1ccc(S(=O)(=O)N2CCCCC2)cc1NC(=O)c1cccs1	3.8	1.5
CN(C)C(=O)C(=O)c1cn(C)c2cc(Cl)c(C(=O)N3CCC(Cc4ccc(F)cc4)CC3)cc12	-17.7	-20.3
CC(C)Cn1cnc2c1c(=O)n(CC(=O)Nc1ccon1)c(=O)n2CC(C)C	2.3	0.0
CC1CN(C(C)c2nc3cc(Cl)ccc3c(=O)n2C)CCN1 (stereo unspecified)	8.7	15.5
CC(=O)C(C)n1c(CN2CCCCC2)nc2c1c(=O)n(C)c(=O)n2C (stereo unspecified)	-3.4	-5.3
O=C(Oc1coc(CSc2nnc(NC(=O)C3CC3)s2)cc1=O)c1cc2ccccc2o1	2.1	0.1
CC(C)CCC(=O)Nc1cc(C(C)(C)C)nn1-c1cccc(F)c1	12.3	2.1
CN(c1ccccc1C(N)=O)S(=O)(=O)c1cc(F)ccc1F	2.7	2.5
O=C(CCCS(=O)(=O)c1ccccc1)N1CCN(c2nc3c(F)cc(F)cc3s2)CC1	5.6	6.3
O=C1NC(=O)N(c2ccccc2)C(=O)/C1=C/c1cccs1	-10.2	-21.2
CCOc1ccccc1CCNC(=O)C(=O)Nc1cccc(F)c1	-2.7	-4.0
COc1cc(/C=C(\C#N)C(N)=O)cc(CSc2nc3ccccc3s2)c1O	-9.3	-9.1
O=C(O)c1cn(CCc2ccccc2)nn1	5.0	4.3
CCNc1ccnc(N(C)CC2(CO)CCC2)n1	3.2	0.7
O=C1CCCc2occ(C(=O)N3CCc4c(nc(-c5ccccc5)[nH]c4=O)C3)c21	3.8	2.7
CCC(NC(=O)c1cc(C)oc1C)c1ccccc1 (stereo unspecified)	-4.3	-5.2
CCCCN(CC(=O)N(CCc1c[nH]c2ccccc12)Cc1ccccc1)C(=O)C(C)(C)CCl	20.0	14.6
CCNc1nc(C)c(C(=O)N2CCC(O)(c3ccc(C)cn3)CC2)s1	2.4	2.2
CCn1c(CCC(N)=O)nn(CN2CCc3cc(OC)c(OC)cc3C2)c1=S	12.3	16.1
CCOC(=O)c1cc(-c2ccc(N3CCN(C(=O)Cc4cccs4)CC3)cc2)n(-c2cccc(F)c2)n1	15.2	11.5
O=C1OC(/C=C/c2ccc(Cl)cc2)=NC/1=C/c1cccc(F)c1	-7.3	-4.9
O=C1NCCN(CC2CCCCC2)C1CC(=O)N1CCN(C2CCCC2)C(=O)C1 (stereo unspecified)	-5.5	-6.9
CC(OCC(O)CN1CCCCCCC1)c1ccc(Cl)cc1 (stereo unspecified)	0.8	0.4
CNc1cc(-c2ccc(CN3CCOCC3)cc2)ncn1	1.1	-0.1
COc1cccc(CSc2nnc(C(C)NC(=O)c3ccccc3Br)n2-c2ccc(C)cc2)c1 (stereo unspecified)	-0.1	2.7
CCC(CO)(NCc1ccc(C)c(C)c1)c1ccccc1 (stereo unspecified)	-15.8	-15.8
CCOCCCNC(=O)c1cc(NC(=O)c2ccc(Cl)c([N+](=O)[O-])c2)ccc1N1CCC(C)CC1	0.6	16.2
Cc1nc2ccccc2nc1COC(=O)C1CC(O)CN1C(=O)C12CC3CC(CC(C3)C1)C2 (stereo unspecified)	10.0	1.1
OCCN1CCN(c2ncnc3nc[nH]c23)CC1	8.0	2.4
COc1ccc(Cn2ccc3c(nnc4c(-c5ccc(Cl)cc5)cnn43)c2=O)cc1	2.0	-0.2
CCN=C1SC(C(=O)Nc2ccc(C(=O)OC)cc2)CC(=O)N1CC (stereo unspecified)	-9.0	-12.2
Cc1nc2c(c(N(C)C)n1)CCN(S(=O)(=O)N1CCOCC1)C2	6.1	2.3
Cc1oc(C(C)(C)C)cc1C(=O)NCCC(=O)N1CCC(C(=O)N2CCOCC2)CC1	16.2	20.2
CC(C)(C)c1ccc(C(=O)N2CCC2(C)C(=O)NCC(F)(F)F)cc1 (stereo unspecified)	5.1	3.4
Cc1sc2nc(C3CC3)nc(N3CCN(C(=O)Nc4ccc(F)cc4F)CC3)c2c1C	-4.4	10.1
CC1CCN(c2ccc(NC(=O)Nc3cc(C(F)(F)F)cc(C(F)(F)F)c3)cc2C(=O)NC(C)c2ccccc2)CC1 (stereo unspecified)	-11.4	-12.4
CCN(CC)C(=O)C(C1CCCC1)N1CCN(C(=O)c2ccc(F)cc2)CC1 (stereo unspecified)	-4.2	-3.3
COc1ccc(-c2nc3ccc(C)cn3c2NC(=O)C2CCCC2)cc1OC	-5.6	-5.3

(continued)
SMILES	NPYLR7 agonist	NPYLR7 agonist max-min
Cc1nc(CNc2nncc(-c3ccccc3)n2)nc2c1CCCC2	-1.2	-5.8
CC(=O)c1ccc(N2C(=O)[C@@H]3CN(S(C)(=O)=O)CCN3C2=O)cc1	-6.4	-14.4
NC(=O)C1=COC2=NC(=O)N(Cc3ccccc3)CCN12	-1.1	-1.5
CCCCNC(=O)N(Cc1c(C)nn(-c2ccccc2)c1N1CCN(CC)CC1)C1CC1	5.5	17.6
CCN1CCN(CC(=O)N(C)CC2CCCN(CCc3ccccc3C)C2)CC1 (stereo unspecified)	2.7	1.7
CSc1cccc(CN2CCCC(CNC(=O)c3cc(C)on3)C2)c1 (stereo unspecified)	-5.0	-8.1
COc1ccc(C(C)=O)cc1CN1C(=O)C(C)ON=C1c1ccc[nH]1 (stereo unspecified)	4.9	3.5
Cc1ccn2c(=O)c(NC(=O)Cc3ccc(-c4ccccc4)cc3)c(C)nc2c1	6.6	2.9
CC(NC(=O)C1CCN(CCOc2ccc(F)cc2)CC1)c1cccc2ccccc12 (stereo unspecified)	0.0	-7.3
CC(=O)CC1(O)C(=O)N(Cc2ccc(C)cc2)c2c(C)cccc21 (stereo unspecified)	15.5	7.6
O=S(=O)(CCC(F)(F)F)NCc1cnn2ccccc12	3.3	4.2
CCOc1ccc(OCC)c(-c2c[n+](=O)c3c(n2[O-])CCCC3)c1	7.9	13.3
Cc1ccsc1CN(Cc1cccc(C(F)(F)F)c1)Cc1nc(C(=O)NCC(C)C)co1	-6.0	5.0
COc1cc(C2SC(C)C(=O)N2Cc2ccccc2)cc(OC)c1OC (stereo unspecified)	7.2	4.3
CN1C(c2cc(Br)ccc2OC(F)F)Nc2ccccc2S1(=O)=O (stereo unspecified)	2.8	-0.8
CC1CC1c1ccc(/C=C/C(=O)Nc2nc(C3CC3)cs2)o1 (stereo unspecified)	2.5	1.0
CC1(C(=O)NS(=O)(=O)Cc2ccccc2C(F)(F)F)CCN1C(=O)Cc1cccs1 (stereo unspecified)	-1.4	-9.5
CN(Cc1nnsc1Cl)C(c1ccccc1)C(F)(F)F (stereo unspecified)	-2.8	-6.5
C/C=C(\C)C(=O)Nc1sc(C(C)c2ccccc2)cc1C(=O)OCC (stereo unspecified)	6.0	3.2
O=C(NCCNC(=O)C1CCN(C(=O)c2cccc(F)c2)CC1)c1ccccc1	0.2	12.9

For convenience, some entries already given.
SMILES	NPYLR7 agonist	NPYLR7 agonist max-min
O=S(=O)(CCC(F)(F)F)NCc1cnn2ccccc12	3.3	4.2
CCOc1ccc(OCC)c(-c2c[n+](=O)c3c(n2[O-])CCCC3)c1	7.9	13.3

The results go on.
SMILES	NPYLR7 agonist	NPYLR7 agonist max-min
CC(=O)c1ccc(N=Nc2sc3ccccc3c2O)cc1	-1.7	-4.1
O=c1[nH]c(=O)n(-c2ccc(Cl)cc2)c(O)c1C=C1C=Nc2ccccc21	-3.5	-10.2
CCC(NC(=O)C1CC12CCOCC2)c1ccc(Cl)cc1 (stereo unspecified)	-6.7	-6.1
CCOC(=O)C(CC)(CCC(=O)OC)c1csc(Nc2ccccc2O)n1 (stereo unspecified)	1.4	31.9
CN1CCN2C[C@@H](NC(=O)c3nc4ccccc4[nH]3)C[C@H]2C1	4.0	47.6
CC1=C(Cc2cn(C(C)c3nncn3C(C)C)nn2)C(C)(C)CCC1 (stereo unspecified)	20.9	15.5
CCOc1ccc(-n2nnnc2CN2CCN(S(=O)(=O)c3cccc(F)c3)CC2)cc1	-3.3	-4.4
COc1ccc(/C=C2\C(=O)NN=C2N)cc1	9.7	4.9
OC1CCCc2c1[nH]c1ccc(Br)cc21 (stereo unspecified)	16.6	15.1
CCOC(=O)C1CCCN(CC(=O)N2N=C(c3ccccc3Cl)CC2c2ccc(OC)cc2OC)C1 (stereo unspecified)	-0.9	6.0
COc1cccc(C(=O)Nc2ccc(Nc3ccc(-n4cccn4)nn3)cc2)c1OC	-7.0	-12.7
CCc1ccc(C(=O)Nc2ccc(N3CCCC3)c(C(=O)NCC(C)C)c2)cc1	-6.5	-3.6
Cc1nn(-c2ccc(Cl)cc2)cc1C(=O)NN1CCOCC1	-4.5	-3.7
Cc1cc(C)c2oc(=O)n(C3CCN(C(=O)c4ccc(Cl)nc4)CC3)c2c1	3.3	1.0
Clc1ccc(-c2cncnc2)cc1Cl	-4.3	-8.6
O=[N+]([O-])c1ccc2nc3c4ccccc4c4ccccc4c3nc2c1	-0.9	-1.6
Cc1ccccc1N(CC(=O)N(C)Cc1cccc(Cl)c1Cl)S(C)(=O)=O	8.2	4.3
CN(C)c1cc(C(F)(F)F)nc(SCc2ccc(C(=O)NCc3ccccn3)cc2)n1	16.8	10.0
O=C(c1ccccc1[N+](=O)[O-])N(Cc1cccnc1)c1nc2ccc(F)cc2s1	-15.8	-10.3
COc1ccnc2c1c(=O)n(CC#N)c(=O)n2C	1.3	-0.6
CC(=O)NCCNC(=O)C1(C)CCN1Cc1ccc2ccccc2c1 (stereo unspecified)	0.2	-3.6
CC(=O)c1ccc(S(=O)(=O)Nc2cccc(-c3ccc4nncn4n3)c2)cc1	-9.9	-3.8
CSCCC(NC(=O)c1ccccc1Br)C(=O)N1CCc2ccccc21 (stereo unspecified)	4.6	4.6
Cc1ccc(Cl)cc1S(=O)(=O)NCC(c1cccn1C)N1CCOCC1 (stereo unspecified)	11.9	10.1

Molecules shown so far with a Cl atom, in the order listed:
SMILES	NPYLR7 agonist	NPYLR7 agonist max-min
COc1cc(-c2nc(C=Nc3ccc(C)c(Cl)c3)c(O)o2)cc(OC)c1OC	-0.3	-7.0
CN(C)C(=O)C(=O)c1cn(C)c2cc(Cl)c(C(=O)N3CCC(Cc4ccc(F)cc4)CC3)cc12	-17.7	-20.3
CC1CN(C(C)c2nc3cc(Cl)ccc3c(=O)n2C)CCN1 (stereo unspecified)	8.7	15.5
CCCCN(CC(=O)N(CCc1c[nH]c2ccccc12)Cc1ccccc1)C(=O)C(C)(C)CCl	20.0	14.6
O=C1OC(/C=C/c2ccc(Cl)cc2)=NC/1=C/c1cccc(F)c1	-7.3	-4.9
CC(OCC(O)CN1CCCCCCC1)c1ccc(Cl)cc1 (stereo unspecified)	0.8	0.4
CCOCCCNC(=O)c1cc(NC(=O)c2ccc(Cl)c([N+](=O)[O-])c2)ccc1N1CCC(C)CC1	0.6	16.2
COc1ccc(Cn2ccc3c(nnc4c(-c5ccc(Cl)cc5)cnn43)c2=O)cc1	2.0	-0.2
CN(Cc1nnsc1Cl)C(c1ccccc1)C(F)(F)F (stereo unspecified)	-2.8	-6.5
O=c1[nH]c(=O)n(-c2ccc(Cl)cc2)c(O)c1C=C1C=Nc2ccccc21	-3.5	-10.2
CCC(NC(=O)C1CC12CCOCC2)c1ccc(Cl)cc1 (stereo unspecified)	-6.7	-6.1
CCOC(=O)C1CCCN(CC(=O)N2N=C(c3ccccc3Cl)CC2c2ccc(OC)cc2OC)C1 (stereo unspecified)	-0.9	6.0
Cc1nn(-c2ccc(Cl)cc2)cc1C(=O)NN1CCOCC1	-4.5	-3.7
Cc1cc(C)c2oc(=O)n(C3CCN(C(=O)c4ccc(Cl)nc4)CC3)c2c1	3.3	1.0
Clc1ccc(-c2cncnc2)cc1Cl	-4.3	-8.6
Cc1ccccc1N(CC(=O)N(C)Cc1cccc(Cl)c1Cl)S(C)(=O)=O	8.2	4.3
Cc1ccc(Cl)cc1S(=O)(=O)NCC(c1cccn1C)N1CCOCC1 (stereo unspecified)	11.9	10.1

These rows are one share of the data (hit frequency here may not be typical).
